# Six1-Eya2 blk – Six1/Eya2 interaction inhibition; Q15475+O00167; AlphaScreen GST-Six1/His-Eya2 binding, biochemical; stronger effect = lower value; control for the full effect not named in the record; activity change, % (test concentration not listed); 360,000 tested, 0.56% active; AID 651725; in the data active = activity change below about -65%; inconclusive = about -30% to -65%; inactive = above about -30%; also: % is scaled to controls: 0 for no effect and ±100 for the full control effect; compound concentration not given in the record
#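 AlphaScreen with GST-Six1 and His-Eya2 (5X mix: 250 nM and 500 nM), glutathione donor and nickel acceptor beads; buffer 50 mM Tris pH 8.0, 300 mM NaCl, 1 mM TCEP; 1 h at 37 C in the dark.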
# CtBP-E1A blk – CtBP/E1A binding inhibition. AID 651724. activity change, % (no concentration beside the values). AlphaScreen GST-E1A/His-CtBP binding, 1536-well; stronger effect = lower value; control for the full effect not named in the record. 340,000 tested, 0.49% active; in the data active means activity change below about -65%; inconclusive means about -30% to -65%; inactive means above about -30%; also: % is scaled to controls: 0 for no effect and ±100 for the full control effect; compound concentration not given in the record
#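 GST-E1A and His-tagged CtBP (125 nM each as 5X stock) were preincubated with pin-transferred compound for 2 h at 37 °C in the dark, then glutathione donor and nickel acceptor beads were added for 1 h before AlphaScreen reading.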
# TRPML1 agonist – activates the human TRPML1 channel; Q9GZU1; TRPML1-expressing cells, Ca2+ dye fluorescence, FDSS; host cell line not named in the record; reference of the full effect not given here; activation, % (no concentration beside the values); 410,000 tested, 0.12% active; AID 624414; in the data active = activation above about 50%; inconclusive = about 30% to 50%; inactive = below about 30%; also: 0% is about no effect; the text of the record puts the active cut at 80%
# Target sequence (Q9GZU1 whole entry, looked up): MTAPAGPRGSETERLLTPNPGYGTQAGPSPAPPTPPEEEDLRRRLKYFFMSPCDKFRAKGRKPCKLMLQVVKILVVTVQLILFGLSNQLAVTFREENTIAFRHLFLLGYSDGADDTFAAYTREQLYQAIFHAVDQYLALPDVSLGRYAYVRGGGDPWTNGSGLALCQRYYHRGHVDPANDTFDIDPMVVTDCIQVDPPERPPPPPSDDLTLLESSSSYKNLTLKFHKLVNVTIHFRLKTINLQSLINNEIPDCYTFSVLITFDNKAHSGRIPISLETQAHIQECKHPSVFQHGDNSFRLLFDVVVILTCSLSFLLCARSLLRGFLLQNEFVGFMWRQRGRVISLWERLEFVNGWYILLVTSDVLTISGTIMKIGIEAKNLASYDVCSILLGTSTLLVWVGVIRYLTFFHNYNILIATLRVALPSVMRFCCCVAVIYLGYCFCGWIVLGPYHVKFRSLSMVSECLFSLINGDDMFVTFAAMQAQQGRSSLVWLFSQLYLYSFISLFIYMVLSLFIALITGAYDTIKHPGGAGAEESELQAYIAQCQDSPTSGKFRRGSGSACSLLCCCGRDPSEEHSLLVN
#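 Agonist activity was taken from a 110 s kinetic Ca2+ dye read on the FDSS after pinning compounds onto TRPML1-DL cells. The cells were seeded at 1,500/well with Tet inducer, incubated about 16 h, then dye-loaded at room temperature.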
# D2 agonist – human D2 receptor agonism in beta-arrestin assay | P14416 | DiscoveRx PathHunter D2 beta-arrestin, luminescence, 90 min; 100% = 57 uM dopamine signal | activation, % (no concentration beside the values) | 360,000 tested, 0.084% active; in the data active = activation above about 40%; inconclusive = about 15% to 40%; inactive = below about 15%; also: compound concentration not given in the record; the text of the record calls up to 30% inactive
# Target sequence (P14416 whole entry, looked up): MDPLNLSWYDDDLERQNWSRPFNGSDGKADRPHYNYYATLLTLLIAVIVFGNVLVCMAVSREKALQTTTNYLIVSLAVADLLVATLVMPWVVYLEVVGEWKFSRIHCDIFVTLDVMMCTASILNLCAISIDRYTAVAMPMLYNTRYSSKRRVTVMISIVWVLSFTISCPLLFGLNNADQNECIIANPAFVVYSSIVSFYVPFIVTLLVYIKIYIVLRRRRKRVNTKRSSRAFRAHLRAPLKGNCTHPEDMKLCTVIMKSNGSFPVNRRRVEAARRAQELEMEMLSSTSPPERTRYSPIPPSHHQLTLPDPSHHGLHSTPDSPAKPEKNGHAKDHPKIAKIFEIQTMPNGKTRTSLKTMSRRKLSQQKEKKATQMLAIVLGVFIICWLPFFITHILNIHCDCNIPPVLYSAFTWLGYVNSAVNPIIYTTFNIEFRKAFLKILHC
#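 Agonist mode: compounds alone added to overnight-plated D2 PathHunter cells for 90 min at 37 C, with 57 uM final dopamine (EC100) defining full response. Beta-arrestin recruitment detected by chemiluminescent reagent, read after 1 h at ambient temperature.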
# PINK1 modulator – changes PINK1 expression | PINK1 immunofluorescence, high-content cytometry, 24 h | Potency, µM (series often up to 76.6 µM), for inactives: top-dose activation (PINK1 increase), usual class: activators | 410,000 tested, 0.2% active | AID 624263; active = well fitted activation curve with a large enough effect; inconclusive = small, poorly fitted or top-dose-only effect; inactive = flat fitted curve, though single readings scatter; cell line not stated here;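 also: potency is read from the fitted curve at half-maximal effect; % of control where 0% means no effect; nearly all actives have a fitted effect of over 65% in size; a mitochondrial uncoupler was the plate control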
#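 Stable cell line, 250 cells/well, 12 h attachment; compounds pinned at 5 concentrations, 24 h; CCCP control. Fixed with nuclear dye, primary antibodies 12 h at 10 degrees C, secondary plus cell stain; laser-scanning cytometer read.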
# D2 potentiator – positive allosteric modulators of human D2 dopamine receptor | P14416 | DiscoveRx D2 beta-arrestin cells, luminescence, 90 min; 100% = 57 uM dopamine signal | potentiation, % (test concentration not listed) | 360,000 tested, 0.23% active; active = potentiation of 50% or more; inconclusive = 30% to 50%; inactive = 30% or less;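 also: compound concentration not given in the record; tested on top of an EC20 dose of dopamine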
#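 PathHunter beta-arrestin assay in DiscoveRx D2 cells. Compounds were added with an EC20 of dopamine (50 nM final) for 90 min at 37 deg C. Luminescence was read 1 h after detection reagent, with 57 uM dopamine as the EC100 control.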
# Numbers without * were called inactive; ? = inconclusive; / = no result given; & = joins results of further samples; [ ] = dose if it differs, or a comment.
SMILES,Six1-Eya2 blk,CtBP-E1A blk,TRPML1 agonist,D2 agonist,PINK1 modulator,D2 potentiator
Cc1ccc(C(=O)NCC(=O)N(C)CC(=O)Nc2ccccc2Br)s1,-0.3,-14.4,2.1,0.6,-0.6%,-7.9
COc1cc(C(c2c(C)[nH][nH]c2=O)c2c(C)[nH][nH]c2=O)cc(OC)c1OC,1.5,1.8,1.1,2.2,-2.4%,-6.7
CCOc1ccc(NC(=O)NCc2cccnc2)cc1,5.2,10.9,1.5,-5.4,-0.6%,-2.7
CCCCc1c(C)[nH]c(=S)[nH]c1=O,-1.1,/,0.3,-6.4,-0.4%,-9.4
Cc1ccc(NC(=O)C2C3C=CC(O3)C2C(=O)O)cc1C (stereo not drawn),2.1,6.0,-0.6,-3.0,0.4%,-3.3
CC1(C(=O)NS(=O)(=O)c2cccc(F)c2)CCN1C(=O)CCc1ccc(Cl)cc1Cl (stereo not drawn),2.9,0.2,-0.2,-3.8,0.1%,0.0
COC(=O)C(C)Oc1ccc2c(c1)O/C(=C\c1cccc(Br)c1)C2=O (stereo not drawn),1.6,/,1.1,-4.6,8.6%,-4.5
O=C(COc1ccccc1F)Nc1ccc(S(=O)(=O)NCc2ccco2)cc1,-9.3,-6.8,-0.3,-1.0,0.4%,20.0
CC(c1ccccc1)N1C(=O)c2ccc(C(=O)Nc3ccc(Br)cc3C(=O)O)cc2C1=O (stereo not drawn),2.2,0.1,0.3,-1.3,2.6%,-9.7
Cc1ccc(S(=O)(=O)NNC(=O)CCC(=O)Nc2ccccc2)cc1,4.8,-0.5,0.0,2.9,-1.1%,-5.2
COc1cc(O)c(C(CCN2CCCC(C)C2)c2ccc3c(c2)OCO3)c(OC)c1 (stereo not drawn),-18.7,-23.0,0.4&2.7,-1.4,0.0%,-19.3
Cn1nc(C(F)(F)F)c(-c2ccccc2)c1NC(=O)CSCC(=O)O,10.1,-21.5,0.7,-4.8,-0.3%,-6.3
Cn1nc(C(C)(C)C)cc1C(=O)N1CCCC(C)(C(=O)NS(=O)(=O)C2CC2)C1 (stereo not drawn),-0.3,3.3,-0.2,1.8,-0.4%,-1.5
CC1CCCN(C(=O)c2ccccc2OC2CCN(S(C)(=O)=O)CC2)C1 (stereo not drawn),6.2,-5.0,-1.2,-17.4,-1.8%,-0.9
Cc1ccc(Cc2c(-c3ccc(C)cc3)nc3c(Cl)cc(C(F)(F)F)cn23)cc1,-6.0,0.8,2.6,-4.0,4.2%,-3.3
CC12CN3CC(C)(CN(C1)C3c1ccc3ccccc3c1O)C2=O (stereo not drawn),-1.9,2.8,-0.5,-3.8,-1.0%,25.0
O=C(/C=C/c1ccncc1)c1ccc2c(c1)OCCO2,9.2,-1.5,-0.6,-1.8,-1.4%,-7.6
CCCc1nc(SC2CCCC2)c2c(=O)n(C)c(=O)n(C)c2n1,4.0,8.1,0.2,-5.8,0.6%,-13.0
Cc1c(Cl)c(C(=O)NC2CCCC2)nn1C,1.2,1.6,0.8,1.3,-1.5%,13.8
O=C(/C=C/c1ccc(F)cc1)Nc1cc(S(=O)(=O)N2CCOCC2)ccc1N1CCCC1,-10.7,3.6,2.0,4.0,4.5%,-19.2
O=c1oc(-c2cccs2)nc2sc3c(c12)CCC3,5.4,-1.8,0.1,0.7,/,14.1
CCOC(=O)CNc1nc(Cl)nc(Nc2ccc(OC)cc2OC)n1,11.1,/,0.4,6.7,6.1%,-9.1
CNc1nc(SCC(=O)OC)nc(N2CCOCC2)n1,15.9,-4.1,0.1,-3.3,1.4%,-5.5
CCn1nc(C(=O)NNC(=O)c2ccccc2OCc2c(C)noc2C)c2ccccc2c1=O,-9.2,-25.6,1.0,-6.5,0.4%,0.6
O=C(NCCCN1CCCC1=O)Nc1ccc([N+](=O)[O-])cc1,7.6,2.5,/,-19.5,4.7%,-5.3
COc1ccc(S(=O)(=O)N(CC(=O)Nc2ccccc2C(=O)N2CCOCC2)c2ccc(F)cc2)cc1,0.0,2.9,-0.3,3.0,4.3%,12.2
O=C(NC1CCCCCC1)C1CCN(S(=O)(=O)c2ccccc2)CC1,3.9,-2.0,0.4,-2.1,-1.6%,-8.4
Cc1ccc(OC(C)C(=O)N2CCc3ccccc32)c([N+](=O)[O-])n1 (stereo not drawn),-5.4,-4.3,-0.4,-2.2,0.0%,-10.9
Cc1ccc(NC(=O)N2CCCC2C(=O)Nc2c(C)cc(C)cc2C)cc1 (stereo not drawn),5.9,1.7,-0.7,5.8,-0.3%,-0.7
O=C(/C=C/c1ccccc1)NC(=S)Nc1ccccc1O,4.5,-5.6,1.2,-3.8,2.3%,-11.5

# Whole records as entered above. Screens in order: Six1-Eya2 blk	CtBP-E1A blk	TRPML1 agonist	D2 agonist	PINK1 modulator	D2 potentiator
# CC12CN3CC(C)(CN(C1)C3c1ccc3ccccc3c1O)C2=O (stereo not drawn) as listed: -1.9	2.8	-0.5	-3.8	-1.0%	25.0
# O=C(/C=C/c1ccc(F)cc1)Nc1cc(S(=O)(=O)N2CCOCC2)ccc1N1CCCC1 as listed: -10.7	3.6	2.0	4.0	4.5%	-19.2

# Three entries from above, sorted by their value in PINK1 modulator, rising.
SMILES | PINK1 modulator
CCOc1ccc(NC(=O)NCc2cccnc2)cc1 | -0.6%
CCCCc1c(C)[nH]c(=S)[nH]c1=O | -0.4%
O=C(NCCCN1CCCC1=O)Nc1ccc([N+](=O)[O-])cc1 | 4.7%

# The list continues.
SMILES,Six1-Eya2 blk,CtBP-E1A blk,TRPML1 agonist,D2 agonist,PINK1 modulator,D2 potentiator
COc1ccc(C(=O)C2CCN(C(=O)Nc3ccccc3C)CC2)cc1,5.7,17.1,-0.8,5.5,3.4%,-2.4
Cc1cc(C(=O)COC(=O)c2ccc([N+](=O)[O-])o2)c(C)n1CC1CCCO1 (stereo not drawn),-7.7,-1.3,-1.5,4.3,2.4%,?
O=C(Nc1ccccc1)Nc1cccc(Cl)c1Cl,0.8,2.9,2.1,2.2,?,-7.8
CCCCCCc1c(C)nc(-n2[nH]c(C)c(CCO)c2=O)[nH]c1=O,-7.3,-10.0,-0.5,-4.1,0.1%,-12.6
Cc1cccc(-n2c(N)c(C(=O)NCCN3CCOCC3)c3nc4ccccc4nc32)c1,16.5,10.6,0.0,-5.2,3.5%,-38.4
O=[N+]([O-])c1cccc(S(=O)(=O)Nc2ccc(S(=O)(=O)NCC3CCCO3)cc2)c1 (stereo not drawn),5.3,-3.4,1.5,-1.0,0.0%,-13.9
COc1ccc(NC(=O)c2cccnc2)cc1,7.9,-1.9,0.1,5.3,-0.8%,-1.3
CCOc1ncccc1C(=O)OCC(=O)c1ccc(C)c(C)c1,3.2,5.8,0.4,-0.3,-0.5%,-1.1
CCN(CC)CCN(C(=O)c1ccc2c(c1)OCCO2)c1nc2ccc(C)cc2s1,-13.3,-19.7,0.9,-5.1,12.5%,-19.7
CCCCCCCC(=O)OC(CN1CCCCC1)CN1CCCC1=O (stereo not drawn),4.1,3.2,0.1,0.0,3.3%[38.3 µM],-20.6
O=C(CC1C(=O)NCCN1Cc1ccc(F)c(F)c1)NCCCn1ccnc1 (stereo not drawn),2.0,-3.6,0.8,0.2,-1.5%,1.7
COc1ccc(NC(=O)C(NC(=O)Cc2cccs2)c2ccccc2)cc1 (stereo not drawn),1.6,-7.7,-0.4,1.4,18.1%,-2.3
O=C1NC(=S)/C(=C\c2ccc(-c3ccccc3Cl)o2)S1,-29.4,3.8,0.4,-5.7,?,-31.3
CCc1c(C)sc(NC(=O)c2cc(-c3ccco3)on2)c1C#N,1.2,22.6,1.3,-3.6,10.5%[38.3 µM],-4.7
O=C(NCCCc1ccccc1)c1ccccc1O,13.8,13.0,1.0,-1.4,/,-0.8
COC(=O)c1cc(S(=O)(=O)NCC2CCN(Cc3ccc(F)cc3)CC2)c[nH]1,4.2,-17.1,-1.1&-0.4,-2.4,-0.9%&-0.3%,-27.7
NS(=O)(=O)c1ccc(Nc2nc(-c3cccnc3)cs2)cc1,5.1,12.8,-0.5,1.3,7.0%,-0.1
N#CCC(=O)Nc1ccc(C(=O)OCC(=O)NC(=O)Nc2ccc3c(c2)OCCO3)cc1,-7.4,-5.4,-0.4,7.4,-0.1%,1.7
O=C1C2C3C=CC(C3)C2C(=O)N1c1ccc(S(=O)(=O)Nc2nccs2)cc1 (stereo not drawn),-0.1,0.5,-0.4,-3.1,-0.1%,-0.7
COC(=O)[C@H]1[C@H]2C[C@@H]3c4[nH]c5cc(OC)ccc5c4CCN3C[C@H]2C[C@@H](OC(=O)/C=C/c2cc(OC)c(OC)c(OC)c2)[C@@H]1OC,3.8,9.6,-1.2,-0.5,0.7%,3.8
CC1=CC(C)(C)N(S(=O)(=O)c2ccc(C)cc2)c2ccccc21,2.7&16.7,4.2,0.4&0.1,1.8,?,-0.9
COc1ccc(NC(=O)C2(N(C(=O)Cn3nnnc3N)c3ccc(OC)cc3)CCCCC2)cc1,0.1,2.1,-1.0,1.1,1.3%,-6.2
CC1Cc2ccccc2N1CC(=O)NC(=O)NC1CCCC1 (stereo not drawn),-15.3,-19.5,-0.4,0.7,3.0%,-15.8
Nn1c(SCc2nc3ccccc3[nH]2)nnc1-c1ccccc1,7.4,-3.6,-0.3,-0.1,/,-5.3
CC(OC(=O)c1cccc(N2C(=O)c3ccccc3C2=O)c1)C(=O)Nc1ccc(N(C)C)cc1 (stereo not drawn),-11.9,-5.5,-0.4,0.5,4.7%,-1.2
CC1=C(OC(=O)c2ccccc2)C(C)(C)C(c2ccccc2)OC1=O (stereo not drawn),4.4,12.3,2.3,-1.6,5.4%,0.2
CNC(=O)c1ncnnc1N(C)C(=O)NCc1ccccc1,2.9,6.8,-0.4,-1.4,-0.7%,-4.7
Cc1[nH]nc(N2CCCCC2)c1[N+](=O)[O-],3.5,-2.5,-0.3,-0.7,3.4%,5.3
CCN(CCCNC(=O)c1[nH]c(C)c(C(C)=O)c1C)c1ccccc1,-14.7,-16.7,-0.3,-1.7,1.8%,-37.2
CCC(C)NC(=O)c1cc(S(=O)(=O)N2CCCCC2)c[nH]1 (stereo not drawn),8.8,-0.3,-0.6,-5.1,0.6%,-1.5
CCC(c1nnc(SCC(=O)Nc2ccc(Cl)cc2C(F)(F)F)n1C1CCCCC1)N(C)C (stereo not drawn),1.1,0.8,-0.4,-2.0,4.6%,-6.6
CCNC(=O)CCn1nc(-c2ccc(Cl)cc2)c2ccccc2c1=O,4.3,-2.4,-0.1,-3.8,1.1%,-10.2
CC1CCCC(NC(=O)c2cccc(S(=O)(=O)N3CCCCC3)c2)C1C (stereo not drawn),5.3,6.8,1.5,-3.1,2.2%,-9.2
CC(=O)O[C@@H]1C[C@H]2C(C)(C)C(=O)C=C[C@]2(C)[C@H]2CC[C@@]3(C)[C@H](c4ccoc4)OC(=O)[C@H]4O[C@]43[C@@]21C,-4.7,4.2,4.7,-0.7,1.2%,-3.2
C[C@@H](c1ccccc1)N1C[C@H](COCc2ccccc2)Oc2cc(N3CCC[C@@H]3CO)ccc2S1(=O)=O,-19.1,-4.6,-1.1,/,0.8%,/
CCOC(=O)c1c(NC(=O)CSc2nnc(CNc3ccc(C)cc3C)o2)sc(C)c1C,-13.0,1.8,0.4,-3.7,-0.3%,-22.5
O=C(CSc1nnc(-c2ccco2)o1)NC1CC2CCC1C2 (stereo not drawn),0.1,2.0,1.0,-4.8,-2.0%,-0.5
